High-throughput results: PubChem, National Center for Advancing Translational Sciences (NCATS)
PINK1 modulator – PINK1 expression modulation. PINK1 immunofluorescence, high-content cytometry, 24 h. Potency, µM (top dose mostly 76.6 µM), without a hit: top-dose activation (PINK1 increase), hits mostly activators. hit rate 0.2% among 410,000. AID 624263; active = well fitted activation curve with a large enough effect; inconclusive = small, poorly fitted or top-dose-only effect; inactive = flat fitted curve, though single readings scatter; cell line not stated here;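 also: potency is read from the fitted curve at half-maximal effect; % of control where 0% means no effect; nearly all actives have a fitted effect of over 65% in size; a mitochondrial uncoupler was the plate control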
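Compound titrations (5 concentrations, 24 h) on a stable cell line; DMSO and CCCP controls. Endpoint: fixed-cell PINK1 immunofluorescence with mitochondrial, cell and nuclear markers, scanned by microplate cytometer.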
D2 ag – agonists of human D2 dopamine receptor (beta-arrestin); P14416; DiscoveRx PathHunter D2 beta-arrestin, luminescence, 90 min; 100% = 57 uM dopamine signal; activation, % (test concentration not listed); hit rate 0.084% among 360,000; AID 624465; in the data active = activation above about 40%; inconclusive = about 15% to 40%; inactive = below about 15%; also: compound concentration not given in the record; the text of the record calls up to 30% inactive
Target sequence (P14416 whole entry, looked up): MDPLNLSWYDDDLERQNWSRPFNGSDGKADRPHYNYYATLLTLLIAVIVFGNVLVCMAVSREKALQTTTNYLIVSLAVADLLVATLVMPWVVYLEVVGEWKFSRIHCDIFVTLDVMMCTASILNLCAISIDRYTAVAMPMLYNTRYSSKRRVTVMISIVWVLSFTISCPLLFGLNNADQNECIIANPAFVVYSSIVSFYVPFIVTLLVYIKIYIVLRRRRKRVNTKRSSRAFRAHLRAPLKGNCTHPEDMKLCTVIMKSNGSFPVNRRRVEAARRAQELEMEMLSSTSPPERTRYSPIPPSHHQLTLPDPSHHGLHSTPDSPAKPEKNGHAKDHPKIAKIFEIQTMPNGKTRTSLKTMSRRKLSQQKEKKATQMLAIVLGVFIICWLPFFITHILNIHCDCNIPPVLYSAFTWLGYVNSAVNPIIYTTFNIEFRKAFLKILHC
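Agonist mode: compounds alone added to overnight-plated D2 PathHunter cells for 90 min at 37 C, with 57 uM final dopamine (EC100) defining full response. Beta-arrestin recruitment detected by chemiluminescent reagent, read after 1 h at ambient temperature.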
ClpP mod – qHTS Assay for Activators of ClpP | ATP-dependent Clp protease proteolytic subunit (Bacillus subtilis (strain 168)), P80244 | purified B. subtilis ClpP, FRET peptide cleavage, 20 min | Potency, µM (series often up to 57.5 µM), without a hit: top-dose activity change, negative = active | hit rate 1.9% among 340,000 | AID 651965, 2013; active = well fitted falling curve with a large enough effect; inconclusive = small, poorly fitted or top-dose-only effect; inactive = no such curve, though single readings can be large or run the other way; also: potency is read from the fitted curve at half-maximal effect; the source files actives as falling curves though it sought activators and does not explain the sign; nearly all actives have a fitted effect of over 65% in size; many hits overshoot -100%
Target sequence (P80244 whole entry, looked up): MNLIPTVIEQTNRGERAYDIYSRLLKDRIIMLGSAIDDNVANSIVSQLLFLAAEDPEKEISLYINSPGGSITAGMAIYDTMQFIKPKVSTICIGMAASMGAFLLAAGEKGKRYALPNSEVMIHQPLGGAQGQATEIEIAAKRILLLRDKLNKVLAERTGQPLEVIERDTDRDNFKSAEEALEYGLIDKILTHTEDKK
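ClpP 10 microg/mL final, pH 8 Tris/KCl buffer with BSA, glycerol, Tween-20; compound pinned in; FRET-FV substrate; RT 20 min; Ex320/Em430; ΔFRET vs ADEP 5.8 microM, DMSO, no enzyme.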
Sfp inh – blocks B. subtilis Sfp PPTase activity. hit rate 3.5% among 310,000. Potency, µM, inactives show max response, negative = inhibition, actives largely listed as inhibitors. AID 1490. Biochemical Sfp PPTase activity, qHTS; active = well fitted inhibition curve with a large enough effect; inconclusive = small, poorly fitted or top-dose-only effect, or another doubt; inactive = no such curve, though single readings can be large or run the other way;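 also: the enzyme is Sfp with the accession as filed and its product quenches rhodamine fluorescence; potency is read from the fitted curve at half-maximal effect; 0% = enzyme reaction without inhibitor and -100% = no enzyme wells; top concentration of the series not given in the record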
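Sfp 15 nM + cpd, 15 min RT; start w/ rhodamine-CoA 5 uM, BHQ-2-YbbR 12.5 uM (final); 50 mM Hepes pH 7.6, 10 mM MgCl2, 0.01% NP-40, 0.01% BSA; read 525/598 nm at 0 and 30 min.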
gsp antag – antagonizes gsp, the McCune-Albright syndrome mutation | gsp-mutant cells, cAMP HTRF, 30 min; control for the full effect not named in the record | Potency, µM (highest dose often 76.9 µM), inactives show at the top dose activity change, negative = inhibition, most hits filed as inhibitors | hit rate 0.4% among 340,000 | AID 624288; active = falling curve of any shape with a large fitted effect; inconclusive = falling curve, mostly with a smaller effect; inactive = flat or rising curve; cell line not stated here;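 also: intracellular cAMP measured with PDE inhibitor Ro 20-1724 present during compound exposure; potency is read from the fitted curve at half-maximal effect; % is scaled to controls: 0 for no effect and ±100 for the full control effect; nearly all actives have a fitted effect of over 65% in size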
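G418-selected cells were plated in DMEM/10% FBS for 16-24 h at 37C, then treated with compounds plus the PDE inhibitor […] (300 uM solution added) for 30 min at 37C. Intracellular cAMP was measured by HTRF after 30 min lysis at room temperature.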
gsp ag – activates gsp, the McCune-Albright syndrome mutation | gsp mutant cells, cAMP HTRF, 30 min; control for the full effect not named in the record | hit rate 0.13% among 340,000 | Potency, µM (doses to about 76.9 µM), for inactives: at the top dose activation (cAMP increase), hits mostly activators; active = well fitted activation curve with a large enough effect; inconclusive = small, poorly fitted or top-dose-only effect, or another doubt; inactive = no such curve, though single readings can be large or run the other way; cell line not stated here;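 also: phosphodiesterase inhibitor Ro 20-1724 added with compounds to block cAMP breakdown; potency is read from the fitted curve at half-maximal effect; nearly all actives have a fitted effect of over 60% in size; about a fifth of the inactives were tested at one dose only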
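Cells in DMEM/10% FBS with G418 were pretreated with compounds in DMSO plus […] (300 uM stock) for 30 min at 37C. cAMP was measured by HTRF (cAMP-d2 plus anti-cAMP antibody-K) after 30 min at room temperature.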
Menin-MLL FL inh – inhibitors of human menin-MLL interaction, wild-type MLL peptide. FP activity change, % at 61.4 µM. 290,000 tested, under 10 active. Fluorescence polarization, fluorescein-MLL peptide displacement from menin; inconclusive = falling polarisation curve, or a change in total fluorescence; inactive = total fluorescence flat and polarisation flat or rising; no compound was filed as active; the % refers to the polarisation; negative = inhibition;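 also: % of control where 0% means no effect; inhibitors lower the polarisation; unlabelled MLL peptide was the positive control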
The depositor's hits bear a star; ? = inconclusive; . = not tested or not shown; & = joins results of further samples; [ ] = remark or other dose.

SMILES	PINK1 modulator	D2 ag	ClpP mod	Sfp inh	gsp antag	gsp ag	Menin-MLL FL inh
O=C1CC(N2CCN(c3ccc(O)cc3)CC2)C(=O)N1Cc1cccs1 (centres undefined)	-1.4%	11.3	-1.0%	-85.5%	-4.6%	-95.8%[inhibitor]	5.5
Cc1ccc(C(=O)Cn2c(C(=O)OCCO)cc3ccccc32)cc1	9.3%	4.9	.	2.6%	-3.4%	-24.8%	-3.0
Cn1cccc1Cc1nnc(SCC(N)=O)n1-c1ccc(F)cc1	0.8%	-1.8	1.2%	-29.5%	13.8%	-0.7%	0.5
CC1CCN(S(=O)(=O)c2ccc(NC(=O)Cn3nnc(-c4ccccc4)n3)cc2)CC1	25.7%[38.3 µM]	5.6	2.3%	1.5%	15.2%	14.2%	8.6
Cc1ccc(NC(=O)c2cccs2)cc1NC(=O)c1cccc(F)c1	5.5%	-3.9	0.6%	14.5%	-4.2%	-20.0%	-0.2
CN1CCN(S(=O)(=O)c2ccc(Sc3nc4ccccc4[nH]3)c3nsnc23)CC1	9.0%	-4.0	0.6%	7.3%	-4.4%	-35.4%[inhibitor]	3.8
Cc1ccc(NC(=O)CS(=O)CC(=O)Nc2ccc3c(c2)OCO3)cc1Cl (centres undefined)	-1.3%	-1.5	-3.3%	16.9%	-5.2%	-3.8%	-0.1
CCc1ccccc1N/C(=N\S(=O)(=O)c1ccccc1)C(F)(F)F	2.5%	-2.3	-1.1%	2.2%	19.3%	-3.1%	-2.2
COc1ccc(CNC(=O)CCS(=O)(=O)c2ccc3c(c2)CC(C)N3C(=O)C2CC2)cc1 (centres undefined)	6.9%&5.7%	0.4	0.1%&-0.1%	3.9%	4.5%	-9.6%	.
CC(=O)Oc1ccc(C(c2ccc(OC(C)=O)cc2)c2ccccn2)cc1	3.4%	1.2	0.2%	7.3%&-1.8%&4.1%&5.7%	-1.2%	.	-1.6
OC[C@H]1O[C@@H]2O[C@H]3[C@H](O)[C@@H](O)[C@@H](O[C@H]4[C@H](O)[C@@H](O)[C@@H](O[C@H]5[C@H](O)[C@@H](O)[C@@H](O[C@H]6[C@H](O)[C@@H](O)[C@@H](O[C@H]7[C@H](O)[C@@H](O)[C@@H](O[C@H]1[C@H](O)[C@H]2O)O[C@@H]7CO)O[C@@H]6CO)O[C@@H]5CO)O[C@@H]4CO)O[C@@H]3CO	1.2%	-4.9	-1.0%	14.5%&18.6%	3.7%	.	-4.1&-3.3
COc1cc(F)ccc1-c1csc(C(C)(O)c2ccc(F)c(F)c2)n1 (centres undefined)	-1.1%	-1.4	-0.3%	.	.	.	.
CCOC(=O)C1C(=O)C=C(c2cccc(NS(C)(=O)=O)c2)CC1c1ccco1 (centres undefined)	0.1%	-1.6	-1.5%	-12.0%	-4.0%	3.9%	2.8
C[C@@H]1CCC[C@@]2(O[C@@H](CCO)C[C@@H](O)[C@@H]2O)O1	0.1%	-0.6	-0.5%	.	8.6%	-34.6%[inhibitor]	.
Cc1[nH]c2ccccc2c1C(=O)CSc1nc2ncc(Cl)cc2[nH]1	4.8%	-3.8	-0.3%	-6.7%	-5.4%	-0.9%[15.4 µM]	18.7
C=CCn1c(COc2ccc(CC)cc2)nnc1SCC(=O)N(C)C1CCS(=O)(=O)C1 (centres undefined)	0.0%	-1.6	0.5%	3.3%	-22.5%	-14.7%	0.9
CN(C)CCN1C(=O)C2C3C=CC(C3)C2C1=O (centres undefined)	0.1%	3.0	-0.7%	4.0%	7.8%	-4.1%	-0.7
Cc1nnc2ccc(-c3cccc(NS(=O)(=O)c4cc(F)ccc4F)c3)nn12	5.4%	0.1	-1.5%	.	-6.3%	4.0%[15.4 µM]	.
COc1ccc(Oc2ncnc3c2oc2ccc(Br)cc23)cc1	-1.1%	-0.1	1.7%	8.8%	-10.7%	24.3%	-0.2
Cc1cccc(NC(=O)c2n[nH]c([N+](=O)[O-])c2Br)c1C	?	-2.5	.	18.3%	?	-3.2%[15.4 µM]	-1.0
O=S(=O)(c1ccc(F)cc1)N1CCC(N2CCCC2)CC1	0.2%	-5.0	-3.6%	-9.1%	-5.4%	3.7%	1.3
COC(=O)C1(C)CCC(C(=O)Nc2ccccc2)C1(C)C (centres undefined)	-1.1%	-1.2	-3.7%	.	10.9%	-3.4%[15.4 µM]	.
O=C(N/N=C/c1cc(Cl)cc([N+](=O)[O-])c1O)C(O)(c1ccccc1)c1ccccc1	-1.0%	-11.2	0.9%	-0.5%	-12.6%	5.6%	12.6
Cc1c(-c2ccccc2)[nH]n2c(=O)c3c(nc12)CCCC3	-0.3%	-3.9	25.1µM*	5.1%	-0.9%	-113.6%[inhibitor]	3.2
COc1ccc(CNC(=O)CNS(=O)(=O)c2ccc(Cl)cc2)cc1	3.8%	-6.3	2.5%	-8.5%	3.0%	1.2%[15.4 µM]	1.6
Cc1c(C(=O)NCc2ccc3c(c2)OCO3)oc2ccc(S(=O)(=O)N3CCCC3)cc12	-0.8%	1.3	-8.4%	?	-3.5%	-26.4%	1.1
O=C(Nc1ccc([N+](=O)[O-])cc1)c1cc(Cl)sc1Cl	0.8%	-4.9	-1.4%	12.8%	3.9%	-1.5%	.
COC(=O)c1ccc(OCC(O)CN(CCO)CCO)cc1 (centres undefined)	-1.1%[38.3 µM]	-0.6	-0.7%	16.5%	3.6%	13.7%	1.3
Cc1nc2c(c(C)nn2-c2ccccc2)c(C)c1Cl	6.1%	1.0	?	-3.0%	-13.5%	-74.9%	-0.5
Cc1noc(C)c1CSc1ccccc1C(=O)N(C)CC(=O)Nc1cccc(F)c1	-1.9%	-3.6	.	.	0.6%	2.1%[15.4 µM]	.
O=[N+]([O-])c1ccc(N2CCCC2)cc1N1CCCC1	-0.5%	-5.0	0.5%	-8.2%	?	-3.5%	-0.8
COc1ccccc1-c1cc(NCc2cccnc2)ncn1	0.1%	.	.	0.0%	.	.	-4.2
Cc1cc(C)nc(N2CCC(C(=O)Nc3ccc(Oc4ccccc4)cc3)CC2)n1	-0.3%[38.3 µM]	-2.8	0.5%	8.0%	4.7%	-4.7%	1.5
CC(C)C/C=C1\CCc2c([nH]c3ccccc23)C1=O	1.8%	1.3	.	-0.9%	-1.9%	8.8%	-1.9
CCCCOc1ccccc1NC(=O)c1ccc(=O)[nH]c1	-2.1%	-2.5	0.7%	14.4%	18.3%	20.9%	1.6
COc1ccc(C2CC(c3ccc(OC)c(OC)c3)=NN2C(=O)c2ccccc2)cc1 (centres undefined)	0.8%	4.5	-4.8%	-3.0%	5.5%	-0.5%	10.5
O=C1/C(=C/c2cccc(F)c2)Oc2cc(O)ccc21	?	-3.1	-1.6%	-2.5%	-18.3%	9.4%[15.4 µM]	?
CCOC(=O)NC(=O)c1cn(Nc2ncc(Cl)cc2C(F)(F)F)c(=O)[nH]c1=O	1.1%	0.0	0.4%	?	-19.0%	10.9%[15.4 µM]	-0.9
CC1(CCc2ccccc2)NC(=O)N(CC(=O)Nc2ccccc2C#N)C1=O (centres undefined)	1.0%	-1.8	-0.6%	.	8.1%	-13.9%	.
Cc1ccc(OCC(=O)NCCCNC(=O)c2ccncc2)cc1	-2.6%	-0.9	.	-0.6%	6.9%	10.9%[15.4 µM]	1.8
CCC(Cc1ccccc1)NC(=O)CN(C)S(=O)(=O)c1ccc2c(c1)c(=O)n(C)c(=O)n2C (centres undefined)	1.7%	-0.7	-11.3%	14.5%	-3.7%	-10.7%	1.6
O=C(CSc1cccc[n+]1[O-])c1cccs1	0.5%	8.7	-0.5%	3.6%	-4.3%	5.3%	-0.1
Cc1nn(-c2ccccc2)c(Cl)c1C(=O)NCc1ccccc1F	-1.4%	5.5	.	1.8%	1.7%	-6.5%	7.1
O=S(=O)(c1ccc(F)cc1)N1CCCC1	-1.6%	1.0	-2.1%	10.8%	0.7%	3.4%[15.4 µM]	6.4
Cc1ccc(S(=O)(=O)N2C[C@H]3C(=O)C[C@@H](c4ccccc4)N(S(=O)(=O)c4ccccc4)[C@H]3C[C@H]2c2ccccc2)cc1	-0.5%	-2.4	-2.6%	.	.	.	.
CCO[C@H]1OC(C(=O)N2CCN(Cc3ccc4c(c3)OCO4)CC2)=C[C@@H](C(C)(C)C)[C@@H]1CCCO	2.2%	0.5	2.4%	16.9%	7.94µM*	.	-0.5
COc1ccc(S(=O)(=O)N2CCN(CCc3ccccc3)CC2)c(OC)c1	1.8%	3.6	.	-1.0%	0.9%	-13.6%	0.0
S=c1nccc(-c2cc(Cl)sc2Cl)[nH]1	0.8%	-1.1	-1.1%	79.4µM*	5.4%	?	2.3
Cc1occc1C(=O)N/N=C/c1cccc2ccccc12	2.4%	0.8	.	4.3%	5.4%	-1.7%[15.4 µM]	-1.8
O=C(/C=C/c1ccccc1)N1CCN(S(=O)(=O)c2ccc(F)cc2)CC1	1.1%	2.8	.	-2.2%	-9.7%	-5.9%[15.4 µM]	-0.1
Cc1noc2ncnc(Oc3ccc4ccccc4c3)c12	-0.6%	4.5	-1.4%	4.3%	-1.1%	-16.4%	1.8
FC(F)(F)c1cccc(-c2ccn3ncnc3n2)c1	0.4%	-2.2	-17.2%	5.2%	19.2%	-3.6%[15.4 µM]	-0.5
O=C(Nc1cccc(Cl)c1)C1CCCN(c2cnccn2)C1 (centres undefined)	0.7%	3.8	-19.8%	13.8%	-4.8%	-13.1%	4.0
CCCNc1nc2c(c(=O)n(C)c(=O)n2C)n1Cc1ccc(F)cc1	1.4%	-0.9	0.0%	9.6%	2.0%	-2.6%	5.8
COCCOC(=O)C1=C(C)Nc2cc(=O)[nH]c(=O)n2C1c1cccc([N+](=O)[O-])c1 (centres undefined)	5.8%	-0.9	1.3%	24.1%	-10.6%	11.2%	2.7
COc1ccc(CN2C(=O)CS/C2=N/N=C/c2cccs2)cc1	0.3%	1.2	.	7.9%	0.4%	0.1%[15.4 µM]	1.4
CCNC(=S)Nc1cc(OCC)c(NC(=O)c2cccs2)cc1OCC	4.9%	-3.4	1.0%	2.8%	-2.7%	-6.1%	1.7
COc1ccc(-c2nnc(Nc3nc4c(OC)cccc4s3)o2)c(OC)c1	13.2%[38.3 µM]	0.5	15.8µM*	-17.1%	-3.4%	-2.6%	0.3
